Screening results deposited in PubChem by National Center for Advancing Translational Sciences (NCATS).
Sfp inh = Sfp phosphopantetheinyl transferase inhibition; Potency, µM, for the others: max response, negative = inhibition, hits mostly inhibitors; Q9F4F7; 310,000 compounds, 3.5% hits; AID 1490; Biochemical Sfp PPTase activity, qHTS; active = well fitted inhibition curve with a large enough effect; inconclusive = small, poorly fitted or top-dose-only effect, or another doubt; inactive = no such curve, though single readings can be large or run the other way;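 also: the enzyme is Sfp with the accession as filed and its product quenches rhodamine fluorescence; potency is read from the fitted curve at half-maximal effect; 0% = enzyme reaction without inhibitor and -100% = no enzyme wells; top concentration of the series not given in the record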
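Step 1, compound plus 15 nM Sfp-PPTase, 15 min, room temperature. Step 2, add rhodamine-CoA (5 uM) and BHQ-2-YbbR (12.5 uM). Step 3, read 525/598 nm fluorescence at 0 and 30 min.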
TRPML1 blocker = inhibitors of human TRPML1 channel; 390,000 compounds, 0.02% hits; AID 624415; activity change, negative = inhibition, % (no concentration beside the values); TRPML1-inducible cells, Ca2+ dye fluorescence, FDSS; stronger effect = lower value; inhibition of EC80 agonist-evoked calcium signal; Q9GZU1; in the data active means activity change below about -50%; inconclusive means about -30% to -50%; inactive means above about -30%;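 also: stimulus is agonist 54-4 at its EC80 concentration; % is scaled to controls: 0 for no effect and ±100 for the full control effect; compound concentration not given in the record; the text of the record puts the active cut at -80%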
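Tet-induced TRPML1-DL cells loaded with Ca8 no-wash calcium dye were read kinetically on FDSS. Compound addition was followed by EC80 agonist 54-4 (4 uM final); inhibition was read over 110 s.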
ClpP mod = qHTS Assay for Activators of ClpP | ATP-dependent Clp protease proteolytic subunit (Bacillus subtilis (strain 168)), P80244 | purified B. subtilis ClpP, FRET peptide cleavage, 20 min | Potency, µM (series often up to 57.5 µM), for inactives: top-dose activity change, negative = active | 340,000 compounds, 1.9% hits; active = well fitted falling curve with a large enough effect; inconclusive = small, poorly fitted or top-dose-only effect; inactive = no such curve, though single readings can be large or run the other way; also: potency is read from the fitted curve at half-maximal effect; the source files actives as falling curves though it sought activators and does not explain the sign; nearly all actives have a fitted effect of over 65% in size; many hits overshoot -100%
Target sequence (P80244 whole entry, looked up): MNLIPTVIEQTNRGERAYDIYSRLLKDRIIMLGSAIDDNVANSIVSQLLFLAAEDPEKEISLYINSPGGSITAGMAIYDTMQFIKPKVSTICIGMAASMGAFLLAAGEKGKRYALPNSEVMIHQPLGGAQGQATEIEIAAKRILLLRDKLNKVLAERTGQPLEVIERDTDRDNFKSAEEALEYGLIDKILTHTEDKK
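Purified B. subtilis ClpP, 10 microg/mL final in Tris/HCl pH8 with KCl, BSA, glycerol and Tween-20, cleaved an Abz/nitrotyrosine-quenched decapeptide. Fluorescence (ex 320, em 430) was read at 0 and 20 min at room temperature. Delta was normalized to 5.8 microM ADEP and DMSO/no-enzyme controls.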
PINK1 modulator = changes PINK1 expression; Potency, µM (titrated, usually from 76.6 µM), without a hit: top-dose activation (PINK1 increase), most hits filed as activators; AID 624263; 410,000 compounds, 0.2% hits; PINK1 immunofluorescence, high-content cytometry, 24 h; active = well fitted activation curve with a large enough effect; inconclusive = small, poorly fitted or top-dose-only effect; inactive = flat fitted curve, though single readings scatter; cell line not stated here;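 also: potency is read from the fitted curve at half-maximal effect; % of control where 0% means no effect; nearly all actives have a fitted effect of over 65% in size; a mitochondrial uncoupler was the plate control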
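Fluorescence from anti-PINK1 antibody, together with nuclear and cell stains, was scanned on a laser-scanning cytometer. Before staining, stable-line cells were incubated 24 hours with compounds at 5 concentrations; primary antibody 12 h at 10 degrees C.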
TRPML1 agonist = activates the human TRPML1 channel; Q9GZU1; TRPML1-expressing cells, Ca2+ dye fluorescence, FDSS; host cell line not named in the record; reference of the full effect not given here; activation, % (concentration not given with the values); 410,000 compounds, 0.12% hits; in the data active = activation above about 50%; inconclusive = about 30% to 50%; inactive = below about 30%; also: 0% is about no effect; the text of the record puts the active cut at 80%
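Tet-induced TRPML1-DL cells, 1,500 per well, cultured overnight, were loaded with a no-wash Ca2+ dye for 45–90 min. Calcium fluorescence was recorded on the FDSS for 110 s after compound addition, before the EC80 agonist (4 uM 54-4) was added.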
TRPV1 potentiator = potentiators of human vanilloid receptor 1 (TRPV1); TRPV1-expressing cells, Fluo-8 calcium influx, capsaicin EC20 potentiation; host cell line not named in the record; control for the full effect not named in the record; potentiation, % at 8.33 µM; 320,000 compounds, 0.02% hits; AID 540277; active means potentiation above 80%; inconclusive means 30% to 80%; inactive means below 30%; also: 0% is about no effect
Target sequence (Q8NER1 whole entry, looked up): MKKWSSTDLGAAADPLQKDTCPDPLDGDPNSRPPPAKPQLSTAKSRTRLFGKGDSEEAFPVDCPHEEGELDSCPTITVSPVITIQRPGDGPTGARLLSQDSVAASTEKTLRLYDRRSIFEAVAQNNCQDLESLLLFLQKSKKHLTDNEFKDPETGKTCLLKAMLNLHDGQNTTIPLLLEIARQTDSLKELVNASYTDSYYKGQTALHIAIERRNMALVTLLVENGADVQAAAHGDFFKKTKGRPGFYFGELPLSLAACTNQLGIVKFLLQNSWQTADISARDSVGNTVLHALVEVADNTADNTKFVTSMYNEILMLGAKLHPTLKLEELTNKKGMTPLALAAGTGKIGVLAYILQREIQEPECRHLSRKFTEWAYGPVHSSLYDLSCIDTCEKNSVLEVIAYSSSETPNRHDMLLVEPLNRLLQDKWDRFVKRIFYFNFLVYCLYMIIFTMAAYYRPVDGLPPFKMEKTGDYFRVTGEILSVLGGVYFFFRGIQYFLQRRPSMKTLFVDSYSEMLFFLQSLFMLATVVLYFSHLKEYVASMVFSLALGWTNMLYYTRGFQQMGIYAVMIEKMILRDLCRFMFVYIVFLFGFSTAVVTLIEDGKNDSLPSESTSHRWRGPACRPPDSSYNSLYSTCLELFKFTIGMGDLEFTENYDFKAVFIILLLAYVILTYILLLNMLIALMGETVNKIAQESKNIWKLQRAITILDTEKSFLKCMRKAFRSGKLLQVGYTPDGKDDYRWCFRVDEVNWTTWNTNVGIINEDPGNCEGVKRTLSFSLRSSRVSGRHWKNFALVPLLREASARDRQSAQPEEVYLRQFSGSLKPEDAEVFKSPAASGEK
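Cells expressing TRPV1 were dye-loaded with Fluo-8 and read kinetically: 10 s baseline, 3 min after compound (agonist portion), then 2 min after EC20 capsaicin (allosteric enhancer portion). Calcium-bound dye fluorescence at 480/520 nm.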
Menin MLL FP FL = menin-MLL binding inhibition, fluorescein peptide. Fluorescence polarization, fluorescein-MLL peptide displacement from menin. FP activity change, % at 61.4 µM. 290,000 tested, under 10 active; inconclusive = falling polarisation curve, or a change in total fluorescence; inactive = total fluorescence flat and polarisation flat or rising; no compound was filed as active; the % refers to the polarisation; negative = inhibition;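 also: % of control where 0% means no effect; inhibitors lower the polarisation; unlabelled MLL peptide was the positive control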
* hit, by the source's call; ? = inconclusive; . = no result given; & = joins results of further samples; [ ] = remark or other dose.

SMILES	Sfp inh	TRPML1 blocker	ClpP mod	PINK1 modulator	TRPML1 agonist	TRPV1 potentiator	Menin MLL FP FL
COc1ccc(NC(=O)CSc2nnc(NC(=O)C3CCC3)s2)c(OC)c1	6%	35	.	14%	-0.5	3	1.0
Cc1nn(C)c(C)c1NC(=O)CCCSc1nc(-c2ccco2)cc(C(F)(F)F)n1	20%	21	-1.3%	0.4%	2.1	-5	-1.1
CC(=O)Nc1ccc(NC(=O)C(Cc2ccccc2)NC(=O)C2CCC(C)CC2)cc1 (configuration not stated)	22%	-7	1.3%	24%	-0.7	-1	2.9
O=C(Nc1cc(-c2nc3cc(Cl)ccc3o2)ccc1Cl)c1ccco1	.	-11	0.4%	-1.0%	1.2	.	.
COCCSc1ccccc1C(=O)Nc1ccc(S(=O)(=O)N2CCOCC2)cc1	-12%	-2	0.2%	1.6%	-0.4	0	-3.6
O=[N+]([O-])c1cc2oc3c(c2c(C=NCc2ccncc2)c1O)CCCC3	?	14	-5.3%	5.2%	1.0	2	13
CC(NC(=O)COC(=O)c1cc(=O)c2ccccc2o1)c1ccccc1 (configuration not stated)	.	31	-13%	-1.8%	0.0	.	.
COCc1cc(C)nc2sc(C(=O)Nc3ccccc3OC)c(N)c12	-13%	12	-0.6%	2.8%	0.3	-2	-0.5
N#C/C(=C\c1ccc(-c2cccc([N+](=O)[O-])c2)o1)C(=O)Nc1nc(-c2cccs2)cs1	-5%	4	-1.4%	5.7%	1.7	-2	4.0
COc1ccccc1CNc1ncncc1-c1ccccc1C(F)(F)F	-1%	.	.	0.2%	.	.	-3.5
COc1ccc(Cl)cc1-c1nc(SCC(=O)NCC2CCCO2)n[nH]1 (configuration not stated)	.	25	-9.1%	-0.5%	0.3	6	.
COc1ccc(C(=O)NCCS(=O)(=O)NC(C)c2ccccc2)cc1 (configuration not stated)	.	23	.	3.6%	1.6	8	.
Cc1nc2ccc(S(=O)(=O)Nc3ccc(-c4nc5cccnc5s4)cc3)cc2s1	-5%	-2	4.1%	-0.5%	-0.3	16	-2.9
O=C(CCC(=O)c1cccs1)NCC(c1ccc(F)cc1)N1CCOCC1 (configuration not stated)	.	-8	-0.9%	0.7%	-0.5	16	.
COC(=O)N/N=C/c1cc(Cl)c(OCc2ccc(F)cc2)c(OC)c1	25%	8	4.4%	?	2.3	-3	.
Cc1ccc(C2=N/C(=C\c3cccnc3)C(=O)O2)cc1	3%	-13	-1.4%	1.2%	-0.5	-5	3.7
O=C(N1CCOCC1)N1CCN(Cc2ccccc2)CC1	14%	2	-0.4%	0.6%	-0.2	-16	0.4
N/C(=N/O)c1nc(N2CCCCC2)nc(N2CCCCC2)n1	-4%	-5	2.7%	-1.7%	-0.5	0	1.3
COc1ccc(/C=N/NC(=O)c2c(C)nc3ccc(Br)cn23)cc1OC	11%	6	.	2.7%	1.1	2	1.3
CSc1cccc(NC(=O)CN2CCN(Cc3ccccc3C)S2(=O)=O)c1	.	9	-0.6%	2.5%	1.5	.	.
Cc1occc1C(=O)NNC(=S)Nc1cccc([N+](=O)[O-])c1	19%	0	-2.2%	-1.1%	-0.2	-4	1.8
Cc1ccc(C)c(S(=O)(=O)NC2CCS(=O)(=O)C2)c1 (configuration not stated)	.	10	-1.0%	-2.3%	3.6	9	.
COC(=O)CCC(=O)OC1(C)C(=O)C2=COC(c3ccc(OC)cc3)=CC2=C(Br)C1=O (configuration not stated)	12%&-10%	-15	-4.8%	-0.4%	9.8	27	2.6&12
CCOC(=O)c1c(NC(=O)CSc2ncccn2)sc(C(=O)NC)c1C	.	-8	7.8%	-6.6%	1.1	8	.
N#Cc1ccc(NC(=S)NCCN2CCOCC2)cc1	-5%	29	1.0%	3.7%	-0.4	-7	0.2
C=CCN(c1ccccc1)S(=O)(=O)c1cccc(C(=O)NNC(=O)c2ccccc2O)c1	.	3	-1.5%	-1.8%	0.5	-16	.
O=C(Cn1cnc2cc([N+](=O)[O-])ccc2c1=O)Nc1ccccc1-c1ccccc1	-5%	-12	-4.4%	2.1%	-0.5	8	0.3
COc1cc(OC)cc(C(=O)N[C@H](C(=O)OCC(=O)c2c[nH]c3ccccc23)C(C)C)c1	.	-4	.	5.7%	4.0	.	.
Cc1ccc(NC2CCCN(C(=O)c3cn(C)c4ccccc34)C2)cc1C (configuration not stated)	-7%	22	-14%	-0.7%	-0.3	15	.
COc1ccc(OC)c2sc(N(CCN(C)C)C(=O)c3ccc4ccccc4c3)nc12	?	-1	.	0.2%	-0.4	11	-3.4
Cc1c(NC(=S)N/C(=N/S(=O)(=O)c2ccccc2)c2ccccc2)c(=O)n(-c2ccccc2)n1C	-10%	2	-1.4%	-1.3%	-0.1	10	-0.6
O=C(NNS(=O)(=O)c1ccccc1)c1cccc([N+](=O)[O-])c1	7%	10	1.9%	1.1%	0.2	-3	-0.4
O=C(CCn1nc(-c2ccc(Cl)cc2)c2ccccc2c1=O)Nc1cccnc1	-1%	44	.	0.4%	0.1	0	-3.2
CCn1c(CN2CCOCC2)nc2cc(NC(=O)c3ccc([N+](=O)[O-])cc3)ccc21	.	5	-0.4%	0.6%	-0.3	.	.
CS(=O)(=O)N1CCCC(C(=O)NCc2ccc(F)cc2)C1 (configuration not stated)	14%	-30	-2.8%	0.5%[38.3 µM]	0.5	-7	-0.3
CC1=C(C(=O)Nc2ccc(C)cc2C)C(c2ccccc2C)n2ncnc2N1 (configuration not stated)	.	5	-19%	-4.5%	0.7	.	.
O=C(CSc1ccc(-c2cccs2)nn1)NCCc1ccccc1	1%	-18	.	1.1%	-0.8	-11	2.8
CCOc1ccccc1NC(=O)CSc1nc2nc(-c3cccs3)cc(C(F)(F)F)c2c(=O)[nH]1	-4%	-5	-16%	3.1%	1.4	-10	0.9
CC(=O)N(C)c1nc(N)n(-c2ccccc2)n1	-5%	-10	2.5%	0.1%	0.1	2	-1.1
O=C(NCC1CCCO1)Nc1ccccc1 (configuration not stated)	5%	0	3.2%	0.6%	0.6	-6	-0.6
COc1cccc(CNC(=O)[C@@H]2CCCN2C(=O)[C@H]2CCCCN2C(=O)c2ccccc2)c1	.	.	2.4%	-0.6%	-0.8	.	.
Cc1c(Br)c([N+](=O)[O-])nn1CC(=O)NCCc1ccc(Cl)cc1	-1%	-3	-0.1%	9.3%	0.2	17	-4.2
CCOC(=O)/C(=C\c1cccc(O)c1)c1nc2sc(C)c(C)c2c(=O)[nH]1	7.1µM*	-2	-1.2%	-0.5%	0.3	1	21
NS(=O)(=O)c1cccc(NC(=O)Nc2ccccc2)c1	1%	-21	3.7%	-1.5%	0.0	3	1.4
CCC1Nc2ccccc2-c2nnc(SC)nc2O1 (configuration not stated)	18%	11	-6.1%	-0.6%	-0.7	8	1.0
CC(Nc1nc(Cl)nc2nc[nH]c12)c1ccccc1 (configuration not stated)	.	.	-0.9%	-0.2%	-0.5	.	.
CCOc1ccccc1NC(=O)CSc1cn(CC(=O)N2CCCCCC2)c2ccccc12	.	26	-0.6%	-0.2%	0.3	.	.
COCCNC(=O)C1CCN(S(=O)(=O)c2ccc3c(c2)OCCO3)CC1	.	27	-1.4%	-1.1%	0.3	-1	.
CC(/C=N/NC(=O)c1ccc2nc(C)[nH]c2c1)=C\c1ccccc1	-5%	-5	1.7%	3.0%	0.0	-2	6.9
O=C(Cc1cccc(C(F)(F)F)c1)Nc1cc(S(=O)(=O)N2CCOCC2)ccc1N1CCCC1	.	19	-0.7%	-0.7%	0.0	29	.
CC(=O)n1cc([C@H]2C=C(C(=O)NCc3ccccc3)O[C@@H](OCCCCO)C2)c2ccccc21	14%	9	-7.1%	-0.9%	-0.2	20	9.8
CC1(Oc2ccccc2)CCN(Cc2ccc(-c3ccccn3)cc2)C1 (configuration not stated)	.	.	1.0%	12%	0.8	.	.
CCOC(=O)C(=NC(C)C)NNc1cc(Cl)ccc1Cl	-23%	-11	0.5%	?	2.0	-2	3.1
CC(C)(C)c1ccc(C(=O)NNc2ccc(F)cc2F)cc1	5%	-14	0.8%	0.8%	-0.2	-13	-7.2
COc1ccc(NC(=O)CSCC(=O)Nc2ccccc2C(=O)N2CCCCC2)cc1	.	12	-1.7%	0.6%	1.2	-3	.
CC1=C(C(=O)Nc2ccccc2C)C(c2ccncc2)n2nc(SCc3ccccc3)nc2N1 (configuration not stated)	.	-10	-3.9%	1.3%	0.2	.	.
CC(=O)N1CCC2(CCCN(Cc3ccccc3)C2)CC1	17%	.	.	-0.1%	.	.	-0.9
CC(C)n1c(/N=C/c2ccccc2O)nc2ccccc21	9%	8	-14%	-0.4%	0.7	?	0.4
CCC(C)c1ccccc1NC(=O)C1CCCO1 (configuration not stated)	5%	15	-1.2%	1.8%	0.6	4	-1.7
CCc1ccccc1NC(=O)Nc1cc(F)ccc1F	14%	-12	0.9%	0.5%	0.1	-2	-0.3

One compound at a time, from the list above. Screens in order: Sfp inh, TRPML1 blocker, ClpP mod, PINK1 modulator, TRPML1 agonist, TRPV1 potentiator, Menin MLL FP FL
CCC(C)c1ccccc1NC(=O)C1CCCO1 (configuration not stated) across the screens: 5%, 15, -1.2%, 1.8%, 0.6, 4, -1.7
COc1ccc(NC(=O)CSCC(=O)Nc2ccccc2C(=O)N2CCCCC2)cc1 across the screens: ., 12, -1.7%, 0.6%, 1.2, -3, .
Cc1c(Br)c([N+](=O)[O-])nn1CC(=O)NCCc1ccc(Cl)cc1 across the screens: -1%, -3, -0.1%, 9.3%, 0.2, 17, -4.2

Additional structures:
SMILES	Sfp inh	TRPML1 blocker	ClpP mod	PINK1 modulator	TRPML1 agonist	TRPV1 potentiator	Menin MLL FP FL
CCCNC(=O)c1ccc(N2CC3CC(C2)c2cccc(=O)n2C3)c(NC(=O)Nc2ccc(CC)cc2)c1 (configuration not stated)	0%	-8	0.3%	-0.7%	-1.2	?	.
Cc1ccc(NS(=O)(=O)c2cc(C(=O)NCc3ccccn3)ccc2Cl)cc1C	6%	24	0.8%	.	1.8	18	4.3
Cc1ccc(C(=O)NCC#N)cc1	15%	4	.	-1.3%	-0.2	5	1.1
N#Cc1c(NC(=S)NC(=O)c2ccccc2)sc2c1CCCC2	?	27	0.4%	0.8%	1.3	-1	0.7
COc1ccc(C(=O)Oc2ccc(C(=S)N3CCOCC3)cc2)cc1	22µM*	0	.	1.2%	0.5	1	-1.2
